# Compound activity: PubChem BioAssay, ICCB-Longwood Screening Facility, Harvard Medical School
# Choline anaer gr: inhibitors of anaerobic choline-dependent gram-negative bacterial growth; calls only; AID 1963822; actives 0.2% (n = 55,000); Gram-negative bacterium anaerobic choline minimal medium, absorbance growth; stronger effect = lower value; many inactives read as strong as hits in the columns shown;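 active = growth z-score on choline under -2 at 7 or 20 h with little or no fall on glycerol, limits in tiers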;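 note: stock transfer was 300 nL into about 50 µL; the organism is E. coli; final concentration not given here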
# Choline anaer gr early: recorded beside Choline anaer gr, whose call it bears; z-score; measured here: choline growth z-score, timepoint 1;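 score of optical density at 7 h as mean of two plates; lower means less growth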
# * hit, by the source's call; i = inactive; & = joins results of further samples.
# Order of results – Choline anaer gr, Choline anaer gr early
O=C(C1CCN(c2ncnc3c2oc2ccccc23)CC1)N1CCN(c2ccc(Cl)cc2)CC1
→ i, -0.92
Cc1cc(F)ccc1S(=O)(=O)NCC(c1cccnc1)N1CCc2ccccc21 (stereo unspecified)
→ i, 1
Cc1cc(=O)n(CC(=O)Nc2ccccc2)c(-n2nc(C)cc2C)n1
→ i, 1
CC(C)NC(=O)CN1C(=O)COc2ccc(C(=O)NCc3ccc4c(c3)OCO4)cc21
→ i, 1.2
O=C(Nc1ccc(S(=O)(=O)N2CCOCC2)s1)N1CCCN(C(=O)c2ccc(F)cc2)CC1
→ i, 1.1
O=C(c1ccccc1F)N1CCN(c2ncnc3c2c(-c2ccccc2)cn3-c2ccccc2)CC1
→ i, -0.64
Cc1cc(C)cc(NC(=O)Nc2ccccc2Sc2nc3c(c(=O)n(C)c(=O)n3C)n2C)c1
→ i, -0.32
CCCN1CCN(C(=O)Cn2nc(N3CCN(c4ccccc4)CC3)ccc2=O)CC1
→ i, -0.55
O=C1c2oc3ccccc3c(=O)c2C(c2cccnc2)N1c1nccs1 (stereo unspecified)
→ i, 0.25
O=S(=O)(Nc1ccc(N2CCCS2(=O)=O)cc1)c1ccc2c(c1)OCCO2
→ i, 0.81

# (cont.)
# Order of results – Choline anaer gr, Choline anaer gr early
COC(=O)c1sc2ccc(NC(=O)Nc3ccc(Br)cc3)cc2c1OC
→ i, 0.56
CCOC(=O)C1CCN(c2c(NCCCN(CC)CC)c(=O)c2=O)CC1
→ i, 0.12
O=C1CN(/N=C/c2ccc(-c3ccc([N+](=O)[O-])cc3)o2)C(=O)N1
→ i, -0.07
O=C(Nc1ccc(N2CCC(c3ccccc3)C2)c(C(=O)O)c1)c1ccccc1F (stereo unspecified)
→ i, 0.44
COC(=O)c1c[nH]n2c(=O)cc(CSc3nnc4c5ccccc5nc(-c5ccc(C)cc5)n34)nc12
→ i, 0.76
CCN(CC)CCCNC(=O)c1cc2n(n1)CC(C)(C(=O)NC1CCCC1)N(C)C2=O (stereo unspecified)
→ i, -0.7
Cc1cc(=O)[nH]c(Nc2ccc(C)c(C)c2)n1
→ i, -0.19
Cc1ccc(NC(=O)c2ccc(-n3nnc4cccnc43)cc2)cc1Cl
→ i, -0.4
CCn1c(C)c(-c2nc(C3CC3)no2)c(S(=O)(=O)N2CCCCC2)c1C
→ i, 0.7
O=C(NCc1ccccn1)c1ccc(CN2C(=O)C3CCCN3C(=O)c3ccccc32)cc1 (stereo unspecified)
→ i, -0.58

# Following part
# Order of results – Choline anaer gr, Choline anaer gr early
CCOC(=O)Cn1cc(S(=O)(=O)N2CCC(C)CC2)c(S(=O)(=O)N2CCC(C)CC2)c1
→ i, 0.32
COc1ccc(CN2C(=O)c3ccccc3CC2(C)C(=O)NC2CCCCC2)cc1 (stereo unspecified)
→ i, -0.1
CCc1nnc(-c2coc(S(=O)(=O)N3CCN(C)CC3)c2)o1
→ i, -0.25
CCc1ccc(-c2cn3nc(N4CCC(C(=O)NCCOC)CC4)sc3n2)cc1
→ i, 0.39
O=C(Nc1ccc(Br)cc1)Nc1ccc2nc3n(c(=O)c2c1)CCCC3
→ i, 0.15
O=C(c1ccco1)N1CCC(Nc2ncnc3c2CCC3)C1 (stereo unspecified)
→ i, 0.47
CCOC(=O)C1CCN(S(=O)(=O)c2ccc3c(c2)CCN3C(=O)CCC(=O)N2CCCC2)CC1
→ i, -0.94
Cc1ccc(C(C)NC(=O)c2ccc(-c3cc(N4CCCC4)ncn3)cc2)cc1 (stereo unspecified)
→ i, -0.68
COC(=O)Nc1nc2ccc(C(=O)c3cccs3)cc2[nH]1
→ i, -0.35&-2&0.3&0.66
CC(C)n1c(=S)[nH]c2ccc(F)cc2c1=O
→ i, -2.8

# Remaining list, next part.
# Order of results – Choline anaer gr, Choline anaer gr early
CCCNC(=O)CN1c2ccccc2NC2=C(C(=O)CC(C)(C)C2)C1c1ccco1 (stereo unspecified)
→ i, -0.6
Cc1ccc(Cl)cc1Nc1c2c(nc3ncnn13)CCC2
→ i, 0.6
CCOC(=O)c1c(C)c(-c2ccccc2)n(CC(=O)N2CC=C(c3ccccc3)CC2)c1C
→ i, 1.4
Cc1oc(-c2ccc(Cl)cc2)nc1CN1CCC(C(=O)N2CCN(c3ccccc3)CC2)CC1
→ i, -1.6
CC(NC(=O)C1CCN(c2nc3ccsc3c(=O)n2-c2ccc(F)cc2)CC1)c1cccnc1 (stereo unspecified)
→ i, -0.14
O=c1ccn(-c2ccc(Cl)cc2)nc1-c1nc(-c2cccc(F)c2)no1
→ i, 0.75
Cc1ccc(CNC(=O)C(C)Oc2ccc(-c3cnc4ccccc4n3)cc2)cc1 (stereo unspecified)
→ i, 0.55
CCOC(=O)c1nc(Nc2ccc(F)c(Cl)c2)c2ccccc2n1
→ i, 0.75
Cc1nc2nc(-c3ccccc3)nn2c(C)c1CC(=O)N(CCO)Cc1ccccc1
→ i, 0.14
O=C(Nc1ccccc1Cl)C1CCN(c2ncnc3onc(-c4ccc(F)cc4)c23)CC1
→ i, -0.08

# The list goes on:
# Order of results – Choline anaer gr, Choline anaer gr early
COc1ccc(OC)c(-c2csc(-c3nnn(-c4ccc(C)cc4)c3N)n2)c1
→ i, -0.32
Cc1ccc(NS(=O)(=O)c2c(C)nc3sc4ccccc4n3c2=O)cc1C
→ i, -0.39
CCOC(=O)c1[nH]c(C)c(CN(Cc2ccc(C)cc2)S(=O)(=O)c2cnn(C(F)F)c2C)c1C
→ i, 1.4
COC1CCN(C(=O)NC(C)(C)C)CC1
→ i, 0.02
CCc1cc(Sc2ccccc2NC(=O)Nc2ccc(Cl)cc2)n2ncnc2n1
→ i, -0.09
CCOC(=O)c1ccc(NC(=O)N2CCSc3ncccc32)cc1
→ i, 0.35
CCN(CC)C(=O)c1ccc2oc(CN3CCN(S(=O)(=O)c4ccc(C)c(Cl)c4)CC3)nc2c1
→ i, -0.57
O=C(Cn1ncn2nc3c(c2c1=O)CCCC3)Nc1ccc(Br)cc1
→ i, 0.92
Cn1c(=O)[nH]c(=O)c2c1nc1n2CCCN1c1ccc(Cl)cc1
→ i, 0.5
COc1ccc(OC)c(S(=O)(=O)N2CC(OCc3ccc(F)cc3Cl)C2)c1
→ i, 0.61

# Molecules from the list above with bromine (three):
# Order of results – Choline anaer gr, Choline anaer gr early
COC(=O)c1sc2ccc(NC(=O)Nc3ccc(Br)cc3)cc2c1OC
→ i, 0.56
O=C(Nc1ccc(Br)cc1)Nc1ccc2nc3n(c(=O)c2c1)CCCC3
→ i, 0.15
O=C(Cn1ncn2nc3c(c2c1=O)CCCC3)Nc1ccc(Br)cc1
→ i, 0.92

# (further entries)
# Order of results – Choline anaer gr, Choline anaer gr early
O=C1CN(Cc2cccc(Cl)c2)S(=O)(=O)c2ccccc2N1Cc1ccccc1
→ i, 0.3
O=C(NCc1ccc(Br)cc1)C1CCN(c2ncc(-c3ccccc3)cn2)CC1
→ i, 0.48
CCc1onc(C)c1C1CCCN1Cc1cccc(Br)c1 (stereo unspecified)
→ i, -0.56
Cc1c(C)n(Cc2ccccc2)c2ncn3nc(-c4ccc(Cl)cc4)nc3c12
→ i, 0.36
COc1ccc(C)cc1S(=O)(=O)Nc1ccc(N2CCCS2(=O)=O)cc1
→ i, 1
Cc1nc2scc(C)n2c(=O)c1NC(=O)c1ccc(F)cc1
→ i, 0.08
CCNC(=O)CN1c2ccc(Br)cc2-c2ccccc2S1(=O)=O
→ i, 1.2
CCOc1ccc2oc(-c3ccccc3)c(C(=O)Nc3ccc(Cl)cc3)c2c1
→ i, 1.4
CCCn1c(=O)c2sccc2n2c(CCC(=O)NCCC3=CCCCC3)nnc12
→ i, 0.37
O=c1n(Cc2ccc(Cl)cc2)nc2c(S(=O)(=O)N3CCCCC3)cccn12
→ i, 1.3

# Next section
# Order of results – Choline anaer gr, Choline anaer gr early
O=C(CCc1ccc(-n2cnc3cccnc32)cc1)NCc1ccccc1Cl
→ i, -0.25
NC(C(=O)O)c1ccc(C(=O)O)c(O)c1 (stereo unspecified)
→ i, 0.64
CCOC(=O)c1c(S(=O)(=O)N2CCCC(C(=O)NCc3ccccn3)C2)c(C)n(CC)c1C (stereo unspecified)
→ i, -0.56
Cn1c(=O)[nH]c(=O)c2c1nc1n2CC(c2ccccc2)=NN1
→ i, 1.1
Cc1nn(-c2ccc(F)cc2)c2sc(C(=O)Nc3ccc4c(c3)OCCO4)cc12
→ i, -0.41
COc1ccc(-c2nnc(-c3cc(S(N)(=O)=O)ccc3Cl)o2)cc1
→ i, 0.77
Cc1cn2c(S(=O)(=O)N3CCCCC3)c(C(C)C)nc2s1
→ i, 0.49
CC1CCC(N2C(=O)c3cc4ccccc4n3CC2(C)C(=O)NC2CCCC2)CC1 (stereo unspecified)
→ i, -0.92
COc1ccc(NC(=O)N2CCC[C@@H]2C(=O)NCc2csc(-c3ccccc3)n2)c(OC)c1
→ i, -0.19
CCOC(=O)C1CCN(C(=O)Cn2ncc3ccccc32)CC1
→ i, 0.53

# Single records, as listed above:
# Listed for CCOC(=O)c1c(S(=O)(=O)N2CCCC(C(=O)NCc3ccccn3)C2)c(C)n(CC)c1C (stereo unspecified) = Choline anaer gr: i; Choline anaer gr early: -0.56
# Listed for CC1CCC(N2C(=O)c3cc4ccccc4n3CC2(C)C(=O)NC2CCCC2)CC1 (stereo unspecified) = Choline anaer gr: i; Choline anaer gr early: -0.92

# Going on with the list:
# Order of results – Choline anaer gr, Choline anaer gr early
CC(=O)N1CCC(C(=O)NCc2ccccc2)(N(C(=O)c2ccc(C)cc2)c2ccc(Cl)cc2)CC1
→ i, 0.36
CCOc1c(C)cnc2c1c(=O)n(CC(=O)N1CCCc3ccccc31)c(=O)n2C
→ i, -1.5
CCCc1cc(C2CCCN2Cc2ccc(C(=O)OC)cc2)no1 (stereo unspecified)
→ i, -0.85
Cc1nc2n(c(=O)c1C)CCN2Cc1cccnc1
→ i, 0.94
CC(C)c1csc(-c2csc(S(=O)(=O)NCc3ccc(Br)cc3)c2)n1
→ i, 0.61
COc1cc(C)c(S(=O)(=O)Nc2ccc(-c3ccc(N4CCOCC4)nn3)cc2)cc1C
→ i, -0.13
Cc1nn(-c2ccc3nncn3n2)c(C)c1CCC(=O)Nc1ccc2c(c1)OCO2
→ i, 1
Cc1cc(NC(=O)CCC2CCCCC2)n(-c2ncnc3c2cnn3-c2ccc(F)cc2)n1
→ i, -0.85
CCNS(=O)(=O)c1ccc2c(c1)N(Cc1noc(C3CCC3)n1)C(=O)CO2
→ i, 0.43
O=S(=O)(Cc1noc(-c2ccc(F)cc2F)n1)c1ccc(Cl)cc1
→ i, 0.96

# Following part.
# Order of results – Choline anaer gr, Choline anaer gr early
O=C(NCC1CCCO1)c1ccc2ccnc(N3CCN(c4ccccc4)CC3)c2c1 (stereo unspecified)
→ i, -0.3
CCOC(=O)c1c(NC(=O)c2cc3ccccc3c(=O)s2)sc(C)c1C
→ i, -0.86
Cc1nnc(N2CCC(C(=O)NCc3cccnc3)CC2)c2nn(-c3ccccc3)c(C)c12
→ i, -1
CCN1CCN(CCNC(=O)c2cc3sc(C)c(CN4CCCCC4)c3[nH]2)CC1
→ i, -3.2
COc1ccc(-c2cc3c(=O)n(CC(=O)Nc4cccc(Cl)c4C)ncn3n2)cc1
→ i, 0.1
CC(C)C(=O)n1nc(-c2ccccc2Cl)nc1N
→ i, -0.77
CCn1c(=O)c(N2CCCC(C(=O)NC3CCN(Cc4ccccc4)CC3)C2)nc2ccccc21 (stereo unspecified)
→ i, 0.19
O=C1Nc2ccccc2Oc2cc(Oc3ccc(Br)cc3)c(S(=O)(=O)N3CCCC3)cc21
→ i, -0.49
Cc1ccc(-c2nc(CSCC(=O)Nc3cccc(C)c3)no2)cc1
→ i, -1.6
Cc1cccc(OCCn2c(CO)nc3ccccc32)c1
→ i, -0.94

# Additional records follow.
# Order of results – Choline anaer gr, Choline anaer gr early
COc1ccc(CCc2nnc3sc(-c4ccncc4)nn23)cc1OC
→ i, 0.06
Cc1ccc(NC(=O)c2ccc(=O)n(CC(=O)N3CCOCC3)n2)cc1
→ i, 1.3
Cc1ccc2[nH]c(=O)c(-c3noc(CCCC(=O)Nc4nnc(C)s4)n3)cc2c1
→ i, -2.1
CCOC(=O)c1c(C)n(C)c2ccc(OCC(O)Cn3c(Cc4ccccc4)nc4ccccc43)cc12 (stereo unspecified)
→ i, -0.14
O=C(NC1CCCCC1)c1c(-c2ccc(F)cc2)nc2n1CCS2(=O)=O
→ i, -0.25
O=C(Nc1ccccc1)N1CC=C(c2c[nH]c3ccccc23)CC1
→ i, -2.1
CC(=O)N1CC2(C)CN(C(C)=O)CC(C)(C1)C2
→ i, 0.67
Cn1nnc(NCc2ccc(-c3ccc(Br)cc3)o2)n1
→ i, 1.2
CCn1c(C)ccc(-c2noc(CCC(=O)Nc3nnc(C(C)C)s3)n2)c1=O
→ i, -1.4
CCc1cc(C2CCCN2Cc2ccncc2)on1 (stereo unspecified)
→ i, -0.13

# Next part
# Order of results – Choline anaer gr, Choline anaer gr early
O=C(c1ccc(N2CCCCC2)nn1)N1CCc2ccccc21
→ i, -0.26
COC(=O)c1sccc1NC(=O)CN1CCCN(Cc2cccc(C)c2)S1(=O)=O
→ i, 0.51
O=C(c1csc(S(=O)(=O)N2CCCCC2)c1)N1CCOCC1
→ i, 0.29
Cc1cc2[nH]c(=O)[nH]c2cc1NC(=O)c1ccc(F)cc1
→ i, -0.21
Cn1nc(-c2nc(C3CC3)no2)c2c1CCN(S(=O)(=O)c1ccc(F)cc1)C2
→ i, -0.05
O=c1c2ccccc2oc2cc(OCc3cccc(Cl)c3)cc(O)c12
→ i, 0.69
CCn1c(=O)c2sccc2n2c(CCCC(=O)N3CCN(c4ccccn4)CC3)nnc12
→ i, -0.74
CCn1cc(C2=NCCO2)c2ccccc21
→ i, -3.9
CCCc1ccc(S(=O)(=O)NCCn2c(-c3ccc(F)cc3)nc3cccnc32)cc1
→ i, 0.66
COCCn1c(SCc2nc(-c3ccc(OC)cc3)no2)nc2cc3c(cc2c1=O)OCO3
→ i, 0.31
COc1ccc(Cl)cc1S(=O)(=O)N1CCN(C(=O)c2nsc3ccc(C)cc23)CC1
→ i, 1.6
CC(C)c1cc(C2CCCN2C(=O)Nc2ccc3c(c2)OCO3)no1 (stereo unspecified)
→ i, -0.76

# This is a subset; rates above refer to the full screens.
